High-throughput results: PubChem, several laboratories
RecA splice inh – Mtb RecA intein splicing inhibition | cell-free RecA intein splicing, fluorescence | 0.75% of 290,000 active | inhibition, %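 (about 9 µM by stock and volumes)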; in the data active = inhibition above about 30%; inconclusive = no clear call, values can overlap the other calls;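 note: 0% = vehicle wells and 100% = reference inhibitor control wells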
Target sequence (P9WHJ3 whole entry, looked up, canonical isoform): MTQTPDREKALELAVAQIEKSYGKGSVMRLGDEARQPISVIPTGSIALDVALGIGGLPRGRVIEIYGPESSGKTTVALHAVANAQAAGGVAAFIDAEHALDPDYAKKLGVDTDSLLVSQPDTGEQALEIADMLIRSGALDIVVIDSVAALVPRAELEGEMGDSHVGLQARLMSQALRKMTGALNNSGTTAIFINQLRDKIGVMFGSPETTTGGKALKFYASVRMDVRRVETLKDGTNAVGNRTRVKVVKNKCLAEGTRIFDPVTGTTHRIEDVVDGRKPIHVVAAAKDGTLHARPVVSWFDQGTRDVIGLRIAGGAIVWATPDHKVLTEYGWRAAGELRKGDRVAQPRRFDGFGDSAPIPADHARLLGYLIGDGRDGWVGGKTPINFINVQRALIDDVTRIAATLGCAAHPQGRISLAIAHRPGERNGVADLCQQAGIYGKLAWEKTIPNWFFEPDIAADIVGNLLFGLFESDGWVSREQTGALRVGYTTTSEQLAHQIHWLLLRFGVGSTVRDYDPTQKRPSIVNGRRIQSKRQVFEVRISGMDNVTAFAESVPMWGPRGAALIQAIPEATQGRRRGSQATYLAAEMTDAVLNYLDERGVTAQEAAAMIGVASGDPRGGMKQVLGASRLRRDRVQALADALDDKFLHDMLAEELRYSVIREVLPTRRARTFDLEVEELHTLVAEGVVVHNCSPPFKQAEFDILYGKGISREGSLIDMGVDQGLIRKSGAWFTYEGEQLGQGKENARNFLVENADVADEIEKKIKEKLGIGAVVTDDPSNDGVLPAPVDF
Mtb H37Rv – M. tuberculosis H37Rv growth inhibitors, H37Rv strain (AID 1626); inhibition, % at 10 µM; hits with a dose series show IC50 in µM; M. tuberculosis H37Rv growth inhibition; higher % means a stronger effect; 0.95% of 220,000 active;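 active = confirmed in a dose series; inconclusive = inhibition above 80% but not taken into the dose series; inactive = below 80% or under 30% at every dose of the series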;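 note: bacteria incubated seven days before Alamar blue readout; 0% = bacteria only wells and 100% = bacteria with antibiotic wells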
Arbovirus anti – arbovirus infection inhibition; arbovirus infection cell-based antiviral screen; 0.37% of 200,000 active; inhibition, % at 10 µM;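 active = inhibition from about 30%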;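 note: bluetongue infection of BSR cells; cell survival read as ATP light after 72 h; 0% = infected wells without compound and 100% = uninfected wells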
Mtb betalactam – beta-lactam sensitization of Mtb H37Rv. inhibition, % at 25 µM. 0.27% of 330,000 active. M. tuberculosis H37Rv growth with meropenem, percent inhibition; hits of this screen are not shown here;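 active = about 74% or more and at least 40 points above the plate without the antibiotic, then above 30% in a dose series; inconclusive = first-round hits that could not be retested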;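 note: growth measured after seven days incubation then overnight dye step; 0% = bacteria only wells and 100% = bacteria with antibiotic; twin plates without the antibiotic show which effects depend on it; some results filed as inactive read as strong as hits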
YopH inh – inhibitors of Yersinia enterocolitica YopH tyrosine phosphatase. fluorescence Ex485/Em525. inhibition, %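 (about 10 µM by stock and volumes)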. 0.16% of 140,000 active. AID 898;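 active = inhibition of 50% or more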;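 note: controls were vehicle for no effect and minimum signal wells for full effect; inactives centre near -20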
Arbovirus anti repeat – recorded beside Arbovirus anti, whose call it bears; inhibition, %; measured here: 10K subset replicate screen; many hits read low in the repeat;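 first of two repeat runs on a subset; 0% = infected and 100% = uninfected wells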
* = called active by the depositor; ? = inconclusive; / = no result given. Not all compounds are listed; count on the stated rates, not on these rows.

SMILES	RecA splice inh	Mtb H37Rv	Arbovirus anti	Mtb betalactam	YopH inh	others
N#Cc1nc(-c2cccs2)oc1NCCCN1CCOCC1	-4.0	3%	-2	4	51*
Cc1c(C)n2c(SCC(=O)N3CCN(c4ccccc4)CC3)nnc2[nH]c1=O	2.4	/	/	2	/
c1ccc(OCCCn2nnc(-c3ccncc3)n2)cc1	4.4	2%	6	6	14
CC1(C)CC(=O)C2=C(C1)OC(N)=C(C#N)C2c1ccccc1 (stereo not drawn)	-1.9	-1%	8	11	-46
CCn1c(N2CCN(S(=O)(=O)c3ccc(Cl)cc3)CC2)nc2ccccc21	-4.1	9%	-2	-14	/
CN(Cc1cccc(F)c1)C(=O)c1ccccc1Sc1ccccc1C#N	1.6	/	/	5	/
c1csc(-c2ccc(N3CCOCC3)nn2)c1	-1.3	/	/	-8	/
Cc1cc2c3c(c1C)C1(C(=O)N3C(C)(C)CC2C)C(C#N)=C(N)Oc2n[nH]c(C)c21 (stereo not drawn)	1.1	3%	12	-5	6
Cn1c(CSc2ncn[nH]2)nc2ccccc21	2.0	-3%	6	10	-48
COc1ccc2[nH]c(CN3CCN(C(C)C)C(CCO)C3)c(C)c2c1 (stereo not drawn)	-0.5	-4%	-1	-4	/
CC(C)(C)n1cc(C(=O)c2ccc3ccccc3c2O)cn1	7.7	14%	16	0	/
CCc1cc2c(=O)c(-c3ccon3)c(N)oc2cc1OC	1.3	-2%	2	5	-35
CCCc1nc(N2CCOCC2)c2sc(=S)n(-c3ccccc3)c2n1	/	-14%	-1	/	19
Cc1cccc(N2CCN(C(=O)c3ccc4c(c3)CCN4S(C)(=O)=O)CC2)c1C	-0.2	/	/	3	/
C/C(=N\N1C(=O)c2ccccc2NC1c1ccccc1)c1ccccc1O (stereo not drawn)	1.1	1%	2	9	/
Oc1ccccc1C1CC(c2cccs2)=NC(c2cccc(Br)c2)N1 (stereo not drawn)	1.5	0%	0	98	/
COc1ccc(N(CC(=O)NCc2ccccc2)S(=O)(=O)c2c(C)noc2C)cc1	-0.1	1%	-6	-1	-7
Cc1ccsc1C(=O)N(Cc1nnc(-c2ccccc2Cl)o1)C1CC1	1.0	/	/	-16	/
O=[N+]([O-])c1ccc(NCc2ccc(Cl)cc2)c2ccncc12	-0.4	/	/	-8	/
O=c1c(-c2ccc(Cl)cc2)[n+]([O-])c2ccccc2n1OCc1ccccn1	-1.3	-12%	3	11	-27
Cc1ccnc2nc(C(=O)OCCOc3ccc(Cl)cc3)nn12	0.1	-12%	21	-5	/
Cc1cc(NC(=O)COC(=O)c2n[nH]c3ccccc23)no1	-0.6	-3%	-5	-1	-21
Cc1cc(C)c(S(=O)(=O)N2CCCC(C(=O)NCc3cccnc3)C2)c(C)c1 (stereo not drawn)	0.4	/	/	-5	/
COc1nccnc1NS(=O)(=O)c1ccc(N=Cc2c(C)[nH]n(-c3ccccc3)c2=O)cc1	1.0	9%	0	8	-23
NC(=O)CC(c1ccccc1)c1ccc2c(c1)OCO2 (stereo not drawn)	3.5	/	/	-4	/
CC(C)(C)NC(=O)c1ccc2c(c1)C(=O)N(C1CCCCC1)C2=O	-4.4	-5%	6	2	17
Oc1[nH]c2ccccc2c1N=Nc1ccc(F)cc1	-0.9	6%	1	8	-23
O=C(/C=C/c1ccco1)N1CCN(S(=O)(=O)/C=C/c2ccccc2)CC1	0.3	-10%	11	-7	/
Cc1ccccc1NC(=O)c1ccccc1NC(=O)c1cccs1	0.6	/	/	-3	/
COc1ccccc1C(=O)Nc1nc(-c2ccc3c(c2)OCCO3)cs1	6.4	-2%	9	-5	/

A draw from above in order of number of heavy atoms, largest number first:
SMILES	RecA splice inh	Mtb H37Rv	Arbovirus anti	Mtb betalactam	YopH inh	others
COc1nccnc1NS(=O)(=O)c1ccc(N=Cc2c(C)[nH]n(-c3ccccc3)c2=O)cc1	1.0	9%	0	8	-23
COc1ccc(N(CC(=O)NCc2ccccc2)S(=O)(=O)c2c(C)noc2C)cc1	-0.1	1%	-6	-1	-7
Cc1cccc(N2CCN(C(=O)c3ccc4c(c3)CCN4S(C)(=O)=O)CC2)c1C	-0.2	/	/	3	/
Cc1cc(C)c(S(=O)(=O)N2CCCC(C(=O)NCc3cccnc3)C2)c(C)c1 (stereo not drawn)	0.4	/	/	-5	/
C/C(=N\N1C(=O)c2ccccc2NC1c1ccccc1)c1ccccc1O (stereo not drawn)	1.1	1%	2	9	/
COc1ccccc1C(=O)Nc1nc(-c2ccc3c(c2)OCCO3)cs1	6.4	-2%	9	-5	/
COc1ccc2[nH]c(CN3CCN(C(C)C)C(CCO)C3)c(C)c2c1 (stereo not drawn)	-0.5	-4%	-1	-4	/
CC(C)(C)NC(=O)c1ccc2c(c1)C(=O)N(C1CCCCC1)C2=O	-4.4	-5%	6	2	17
Cc1ccnc2nc(C(=O)OCCOc3ccc(Cl)cc3)nn12	0.1	-12%	21	-5	/
O=[N+]([O-])c1ccc(NCc2ccc(Cl)cc2)c2ccncc12	-0.4	/	/	-8	/
CCc1cc2c(=O)c(-c3ccon3)c(N)oc2cc1OC	1.3	-2%	2	5	-35
NC(=O)CC(c1ccccc1)c1ccc2c(c1)OCO2 (stereo not drawn)	3.5	/	/	-4	/
Oc1[nH]c2ccccc2c1N=Nc1ccc(F)cc1	-0.9	6%	1	8	-23

Additional entries.
SMILES	RecA splice inh	Mtb H37Rv	Arbovirus anti	Mtb betalactam	YopH inh	others
CCCNC(=O)NS(=O)(=O)c1cnccc1Sc1ccc(Cl)c(Cl)c1	0.6	-7%	-5	-5	-115
COc1ccc(C(=O)O)nc1C	0.2	-8%	/	2	/
CCc1nnc(NC(=O)c2ccc(S(=O)(=O)N3CCOCC3)cc2)s1	3.3	3%	5	4	-26	Arbovirus anti repeat=6
COc1ccccc1C(=O)Oc1ccc2ccc(=O)oc2c1	-87	/	/	4	/
COc1ccc(C(=O)N[C@H](C(=O)NCC2CCCCC2)C(C)C)cc1	-1.5	-14%	-3	-8	-20
CCc1ccc(NC(=S)Nc2ccc3[nH]c(=O)[nH]c3c2)cc1	1.7	32%	/	91	/
O=C(Cc1coc2cc3c(cc12)CCC3)NCC1(N2CCCCC2)CCCCC1	1.8	11%	16	-4	-6
CCc1ccccc1NC(=S)NCC1CCN(c2ccc(OC)cc2)C1 (stereo not drawn)	4.7	-5%	/	7	/
CCC1CCCCN1C(=O)CSc1nnc(-c2ccco2)o1 (stereo not drawn)	/	-2%	0	-4	-26
CCOC(=O)c1cnn2cc(-c3[nH]ncc3[N+](=O)[O-])cnc12	1.3	-4%	0	-5	-33
CN(C)c1ccc(NC(=O)Nc2cccc(Cl)c2)cc1	-3.2	-6%	-17	0	10
COc1ccc(OC)c(NC(=O)C2CCCN2C(=O)NC2CCCCC2)c1 (stereo not drawn)	0.4	/	/	1	/
CC1(c2ccccc2)NC(=O)N(Cc2ccc([N+](=O)[O-])cc2)C1=O (stereo not drawn)	0.8	-2%	1	5	-30
COc1ccc(-n2c(O)c(C=NCCN3CCN(C(C)=O)CC3)c(=O)[nH]c2=S)cc1	-0.9	/	/	?	/
CC(=O)Nc1ccc(S(=O)(=O)Nc2ccc(S(=O)(=O)Nc3ncccn3)cc2)cc1	-3.9	/	/	4	/
CN(CC(=O)Nc1ccc(Cl)c(Cl)c1)C1CCCCC1	2.8	/	/	-3	/
OCCC1CN(Cc2cnn(-c3ccc(F)cc3)c2)CCN1Cc1ccsc1 (stereo not drawn)	7.8	1%	5	-9	/
O=C(CC12CCC(CC1)C2)NCc1ccc2c(c1)OCO2	1.9	-6%	-20	-2	-16
COC(=O)C1=C(O)/C(=C\c2ccc(OCC(=O)Nc3ccccc3OC)cc2)N=C1C	-22	/	/	4	/
Cc1cc(Nc2ccc(F)cc2)n2nc(C)nc2n1	0.4	-7%	10	-1	-38	Arbovirus anti repeat=10
CCOC(=O)C(CC)n1cnc2c(nnn2-c2cccc(OC)c2)c1=O (stereo not drawn)	-0.6	/	/	-9	/
COC(=O)C1=C(C)NC2=C(C1c1ccc(O)cc1)S(=O)(=O)c1ccccc12 (stereo not drawn)	-2.3	-10%	-6	0	-11
CC#CC(=O)NC1CCCN(C2Cc3ccccc3C2)C1 (stereo not drawn)	9.2	/	/	0	/
CCn1cc(C(=O)N2CCN(Cc3ccc4c(c3)OCO4)CC2)c(=O)c2ccc(C)nc21	-2.1	-2%	9	-7	-24
COc1cccc(C(=O)Nc2ccc(S(=O)(=O)N3CCCCC3)cc2)c1OC	2.9	/	/	7	/
COc1cc(CC(=O)N(c2ccccc2)c2nc(C)cs2)cc(OC)c1OC	1.9	5%	0	4	/
COc1ccc(-n2ncc3c2CC(C)(C)CC3NC(=O)C2=CC(=O)CC(C)(C)O2)cc1 (stereo not drawn)	0.6	/	/	3	/
O=c1[nH]c(-c2ccc(O)cc2)nc2scc(-c3cccs3)c12	1.4	-9%	/	3	/
CC(OC(=O)c1cccc([N+](=O)[O-])c1)C(=O)NCc1ccc2c(c1)OCO2 (stereo not drawn)	-0.2	/	/	1	/
COCCNC(=S)NNC(=O)c1cccs1	0.8	-2%	10	9	/
CC(=O)Nc1ccc(S(=O)(=O)NCC(=O)NNC(=O)COc2ccccc2Cl)cc1	-1.4	/	/	-5	/
CC(C)c1ccc(/C=C/C(=O)NC(=S)NN2CCOCC2)cc1	1.0	/	/	3	/
CCC(C)n1c(O)c(C=Nc2cccc(C(F)(F)F)c2)c(=O)[nH]c1=S (stereo not drawn)	-5.7	8%	4	9	-12
Cc1oc(-c2ccccc2Cl)nc1CS(=O)(=O)CC(=O)NCCc1ccccc1	4.4	/	/	-5	/
Cc1ccc2c(c1)cc(CN(Cc1ccco1)C(=O)N1CCOCC1)c1nnnn12	1.4	-10%	-15	-2	/
NC(=O)CSC1=N/C(=C\c2ccco2)C(=O)N1c1ccc(OC(F)F)cc1	12	2%	6	-2	/
O=C(CSc1nnnn1-c1cccc2ccccc12)N1CCOCC1	-0.1	0%	1	1	-28
COc1ccc(Cl)cc1-c1nc(SCC(=O)NC(C)C(C)C)n[nH]1 (stereo not drawn)	-2.1	-6%	-6	6	/
COCCn1c(SCC(=O)c2[nH]c(C)c(C(C)=O)c2C)nc2ccccc21	0.3	0%	-4	1	-35
COCCNC(=O)c1onc(CSc2cccc(OC)c2)c1C(=O)NCCOC	-0.5	/	/	-7	/
Cn1c(-c2ccc(Cl)nc2)nc2ccccc21	0.5	/	/	2	/
Cc1cc(C(=O)OCC(=O)N2CCN(C(=O)c3ccco3)CC2)c(C)n1-c1ccc(F)cc1	0.5	-3%	4	-8	-8
Cc1cc(C)nc(N2CCCC(C(=O)Nc3ccc4c(c3)OCO4)C2)n1 (stereo not drawn)	1.8	-3%	-3	8	-11
O=C(Cn1nc(-c2ccccc2)c2ccccc2c1=O)Nc1ccccn1	-4.9	50%	0	91	-41
Cc1ccc(CNS(=O)(=O)c2c(C(=O)N3CCCCC3)c(C)n(C)c2C)cc1	0.1	/	/	-3	/
CC(C)CCn1c(N2CCC(C(N)=O)CC2)nc2c1c(=O)[nH]c(=O)n2C	2.0	3%	4	-5	-58
